Assay outcomes as filed in PubChem.
Vaccinia Venus: qHTS for Stage-Specific Inhibitors of Vaccinia Orthopoxvirus: Venus Reporter Primary qHTS. hit rate 0.46% among 330,000. AID 720580, 2013. Potency, µM (series often up to 36.5 µM), inactives show at the top dose activity change, negative = inhibition, usual class: inhibitors. Vaccinia virus Venus reporter expression, fluorescence; active means well fitted inhibition curve with a large enough effect; inconclusive means small, poorly fitted or top-dose-only effect; inactive means no such curve, though single readings can be large or run the other way; tested in A549 cells; also: nearly all actives have a fitted effect of over 30% in size; inactives centre near -10
VACV mCherry inh: qHTS for Stage-Specific Inhibitors of Vaccinia Orthopoxvirus: mCherry Reporter Primary qHTS | Vaccinia virus mCherry reporter infection, fluorescence; about a quarter of the inactives have no number | Potency, µM (highest dose often 36.5 µM), for the others: at the top dose activity change, negative = inhibition, actives largely listed as inhibitors | hit rate 0.63% among 310,000; active = well fitted inhibition curve with a large enough effect; inconclusive = small, poorly fitted or top-dose-only effect; inactive = no such curve, though single readings can be large or run the other way; tested in A549 cells; also: nearly all actives have a fitted effect of over 35% in size; inactives centre near -10
The depositor's hits bear a star; i = inactive; ? = inconclusive; . = not tested or not shown. % is scaled to controls: 0 for no effect and ±100 for the full control effect; potency is read from the fitted curve at half-maximal effect. Compounds as they come (roughly 0.86% active in at least one column).

SMILES	Vaccinia Venus	VACV mCherry inh
Cc1cc(NS(=O)(=O)c2ccc(NC(=O)CCc3ccccc3)cc2)no1	-7.2%	.
CCOC(=O)c1ccc(N=Cc2cnc(N)nc2N)cc1	-25.4%	-19.2%
Nc1ccc(Oc2cc(N)cc(Oc3ccccc3)c2)cc1	-8.2%	-8.9%
COc1ccc(N2C(=O)NC3CC2(C)Oc2ccc(Cl)cc23)cc1OC (stereo not drawn)	-21.8%	?
O=C(Cc1c(Cl)cccc1Cl)Nc1ccc(S(=O)(=O)Nc2ncccn2)cc1	-15.5%	-12.6%
Cc1ccc([N+](=O)[O-])cc1Nc1nc(N2CCCC2)nc(N2CCCC2)n1	-7.3%	i
O=C(O)C1CCCCC1C(=O)Nc1ccc(S(=O)(=O)N2CCCCC2)cc1 (stereo not drawn)	-6.4%	i
CCc1ccc(OCC(=O)NNC(=O)Cc2ccc(S(=O)(=O)N3CCOCC3)s2)cc1	-11.5%	-6.3%
Cc1ccc(OCC(=O)OCc2cc(=O)n3nc(-c4cccs4)sc3n2)cc1	-0.6%	-6.8%
Cn1cnnc1Sc1ccc(C(=O)OCC(=O)Nc2cc(Cl)cc(Cl)c2)cc1[N+](=O)[O-]	-6.6%	-14.9%
Cc1sc(NC(=O)c2ccco2)c(C(Nc2ccccn2)c2ccccc2)c1C (stereo not drawn)	-15.8%	-28.2%
COc1ccccc1CNC(=O)COC(=O)CC1CC2CCC1C2 (stereo not drawn)	-4.4%	-8.7%
COCCN1Cc2cccc(C(=O)NC3CCCCCC3)c2C1=O	-7.7%	i
O=C(O)c1ccc(-n2nc(-c3ccccc3)c3ccccc3c2=O)cc1	2.1%	-1.4%
COc1ccccc1CNC(=O)c1ccc(OC(F)F)c(OC)c1	-5.4%	-10.2%
CC(OC(=O)c1ccc(Cl)c(S(=O)(=O)N2CCOCC2)c1)C(=O)Nc1ccc(S(N)(=O)=O)cc1 (stereo not drawn)	-4.7%	-13.9%
Cc1onc(-c2ccccc2Cl)c1C(=O)N1CCc2ccccc21	-9.5%	-14.8%
C[C@@H]1CN(Cc2nnnn2CC(=O)NCCCn2cccn2)C[C@H](C)O1	-8.5%	-14.1%
CCc1ccc(S(=O)(=O)NCc2ccc(N3CCN(C)CC3)cc2)cc1	-16.2%	-12.4%
CC(c1ccccc1C(O)c1ccccc1)N(C)C (stereo not drawn)	-13.3%	-12.2%
COc1cc(-c2nnc(SCC(=O)c3ccccc3)o2)cc(OC)c1OC	-13.4%	-21.3%
S=C(Nc1cccc(Cl)c1)Nc1ccc2c(c1)OCCO2	-8.7%	-11.4%
CC(C)c1ccc(NC(=O)C2=CC=CN3CCS(=O)(=O)N=C23)cc1	-9.2%	-20.7%
COc1ccc(NC(=O)c2ccc3c(c2)c(C)c(C)n3Cc2ccc(F)cc2)c(OC)c1	-9.3%	-9.8%
CN(C)CCN1C(=O)C(O)=C(C(=O)c2ccco2)C1c1ccccc1F (stereo not drawn)	-14.3%	-10.2%
CC(C(=O)NCc1ccccc1)N1C(=O)C2CC=C(Cl)CC2C1=O (stereo not drawn)	-19.0%	.
COc1ccc(N2CCN(C(=O)c3ccc(CNc4c(N5CCOCC5)c(=O)c4=O)cc3)CC2)cc1	-9.8%	-15.0%
Cc1cc(=O)c(C(=O)Nc2cccc(N3CCCC3=O)c2)nn1-c1ccccc1Cl	-23.6%	i
COc1ccc(-c2cc(C(=O)N3CCN(c4ccc(F)cc4)CC3)no2)cc1	-12.2%	-28.9%
CN(CCc1ccccc1)C(=O)c1ccc(NC(=O)Cc2ccc(NC(=O)C3CCN(C(=O)C4CC4)CC3)cc2)cc1	-18.0%	i
CC1(C)C2CCC(C2)C1C/C=N/NC(N)=S (stereo not drawn)	-36.8%	?
Cc1ccc(C(=O)NCc2nnc(SCC(=O)NC(C)c3ccccc3)n2C)cc1 (stereo not drawn)	-3.3%	-9.4%
Cc1cccc(N2CCN(C(=O)CN3C(=O)CSc4c3c(C)nn4-c3ccccc3)CC2)c1C	-13.0%	-3.7%
CCCCCC(=O)NNC(=S)NC(=O)c1ccc([N+](=O)[O-])cc1	-25.6%	i
COc1ccccc1-c1noc(-c2ccc(N3CCN(c4ccccc4)CC3)c([N+](=O)[O-])c2)n1	-0.7%	-8.0%
O=C(CNc1cc(S(=O)(=O)N2CCOCC2)ccc1NCC1CCCO1)Nc1ccccc1F (stereo not drawn)	-1.5%	-12.6%
CCOc1ccccc1N1CCN(C(=O)c2ccc3c(c2)OCO3)CC1	?	?
CC1CN(c2oc(-c3ccco3)nc2S(=O)(=O)c2ccccc2)CC(C)O1 (stereo not drawn)	-4.4%	.
COc1ccccc1CNC(=O)COC(=O)c1ccc(S(=O)(=O)N2CCCC2)cc1	-13.2%	-15.9%
O=C(NC(=S)Nc1ccc2cn[nH]c2c1)c1ccccc1	10.8%	i
Cc1nn(-c2ccccc2)c(C)c1C(=O)OCC(=O)NC(=O)NC1CCCC1	?	.
CSc1ccc(CCNc2ncnc3onc(C)c23)cc1	-20.8%	-11.1%
COc1ccc(NC(=O)c2[nH]ncc2[N+](=O)[O-])cc1	?	?
CCc1cc(=O)oc2cc(C)cc(OC(C)C(=O)NC3CCN(Cc4ccccc4)CC3)c12 (stereo not drawn)	-12.5%	-7.5%
CCOc1ccccc1CNC(=O)CCCn1ncn2c(cc3occc32)c1=O	-15.8%	-19.1%
CC(=O)OCOC(c1ccc2ccccc2c1)P(=O)(OCOC(C)=O)OCOC(C)=O (stereo not drawn)	-8.0%	-9.8%
O=C(CSc1n[nH]c(-c2cccnc2)n1)Nc1ccc([N+](=O)[O-])cc1Br	-6.7%	2.9%
CCOC(=O)C(=O)N(C)c1c(CC)nc2c(OCc3ccc(Cl)cc3)cccn12	-11.9%	21.9%
COC(=O)c1cc2nc(-c3ccc(OC)c(OC)c3)cc(C(F)(F)F)n2n1	-2.8%	.
CCN1C(=O)N(CC)C2C1N(CO)C(=O)N2CO (stereo not drawn)	3.3%	1.6%
Cc1ccc(SC(CC(=O)c2ccc(C(C)(C)C)cc2)C(=O)O)cc1 (stereo not drawn)	-12.8%	-12.9%
Cc1ccccc1CN1CCC(CNC(=O)c2cc3ccc4cccnc4c3[nH]2)CC1	-23.9%	?
COc1ccccc1N1CCN(S(=O)(=O)c2ccc(NC(C)=O)cc2)CC1	-4.3%	i
Nc1c(Cl)cc(-c2cn(CCC(=O)O)c(-c3ccncc3)n2)cc1Cl	-2.4%	i
O=C(Nc1ccccc1F)C(=Cc1sc(N2CCOCC2)nc1-c1ccccc1)C(=O)Nc1ccccc1F	-0.1%	i
COc1ccc(-c2cc(OC(=O)c3ccccc3Cl)c3c(C)oc(C)c3c(=O)c2)cc1OC	17.9%	-7.4%
N#Cc1nc(COc2ccccc2F)oc1NCc1ccc(F)cc1	-14.9%	-24.7%
CCOC(=O)Cn1nc(C)n(-c2c(C)cccc2C)c1=O	1.4%	5.3%
CS(=O)(=O)Nc1ccc(C2=NN(C(=O)CCCC(=O)O)C(c3cccs3)C2)cc1 (stereo not drawn)	-8.7%	i
COc1ccc(Cl)cc1-n1c(C)cc(C=O)c1C	-12.4%	.

An excerpt from above in order of SMILES length, rising.
SMILES	Vaccinia Venus	VACV mCherry inh
CCN1C(=O)N(CC)C2C1N(CO)C(=O)N2CO (stereo not drawn)	3.3%	1.6%
N#Cc1nc(COc2ccccc2F)oc1NCc1ccc(F)cc1	-14.9%	-24.7%
COc1ccccc1N1CCN(S(=O)(=O)c2ccc(NC(C)=O)cc2)CC1	-4.3%	i
Cc1ccccc1CN1CCC(CNC(=O)c2cc3ccc4cccnc4c3[nH]2)CC1	-23.9%	?
CCOC(=O)C(=O)N(C)c1c(CC)nc2c(OCc3ccc(Cl)cc3)cccn12	-11.9%	21.9%
O=C(CSc1n[nH]c(-c2cccnc2)n1)Nc1ccc([N+](=O)[O-])cc1Br	-6.7%	2.9%

(further entries)
SMILES	Vaccinia Venus	VACV mCherry inh
CCC(=O)N1CCN(c2ccccc2NC(=S)NC(=O)c2ccco2)CC1	-11.8%	i
CCOC(=O)Nc1ccc2c(c1)C(=NNC(N)=S)c1ccccc1-2	15.8µM*	11.2µM*
O=C(CN(Cc1ccccc1Cl)C(=O)CNS(=O)(=O)c1ccc(F)cc1)NCC1CCCO1 (stereo not drawn)	-20.3%	i
C=CCOc1cccc(C2c3c(oc4ccccc4c3=O)C(=O)N2c2ccccn2)c1 (stereo not drawn)	-11.8%	-18.4%
CCN(CC)C(=O)CSc1nc2cc3c(cc2c(=O)n1Cc1ccc(C(=O)NCCc2ccc(OC)c(OC)c2)cc1)OCO3	-10.9%	-12.1%
COC(=O)c1nn(-c2ccc(F)cc2)ccc1=O	2.0%	-12.5%
Cc1cc(NC(=O)c2ccc3nccnc3c2)ccc1Br	-9.6%	-1.2%
O=c1[nH][nH]c(=O)c(Cl)c1Cl	2.7%	-6.0%
CN(CC(=O)OCC(N)=O)S(=O)(=O)c1ccc(Cl)cc1	-8.7%	-15.7%
O=C(/C=C/c1ccccc1Cl)N1CCCN(C(=O)/C=C/c2ccccc2Cl)CC1	3.6%	-3.6%
CCOC(=O)c1cn(CC)c2cc(F)c(F)cc2c1=O	-2.8%	-6.3%
COC(=O)[C@H](CCSC)NC(=O)N1CCC(C)CC1	-6.3%	-5.2%
O=C1C=C(O)C(n2cncn2)C(c2ccc3c(c2)OCO3)C1 (stereo not drawn)	-0.3%	-0.6%
CC(C)c1cnc2c(c1SCC(=O)Nc1ccc(OC(F)(F)F)cc1)c(=O)n(C)c(=O)n2C	-21.5%	-19.1%
CN1C2CCC1CC(NC(=O)c1cc(Cl)cc3[nH]cnc13)C2 (stereo not drawn)	-18.5%	-14.9%
CC(O)(c1ccccc1)c1nc(-c2cccc(C#N)c2)cs1 (stereo not drawn)	0.7%	-4.9%
Cc1cccc(NC(=O)c2cccnc2Oc2ccccc2)c1C(=O)O	-9.3%	i
COc1ccc(-n2ccnc(SCC(=O)NCc3ccc(C)cc3)c2=O)cc1Cl	-13.6%	-19.4%
CC(C)c1ccc(NC(=O)Cn2c(=O)n(CC3CCC(C(=O)NCCc4ccccc4)CC3)c(=O)c3ccccc32)cc1 (stereo not drawn)	-17.0%	-27.4%
CCOc1ccc(CCN2C(=O)C(=O)N([C@@H](CC(C)C)CN3CCC[C@H]3CN3C(=O)C(=O)NC[C@@H]3CC(C)C)C[C@@H]2Cc2ccccc2)cc1	-25.8%	?
CCOc1ccc(NC(=O)CSc2nc3cccnc3n2CC)cc1	-12.7%	i
O=C(COC(=O)c1ccc(F)c(S(=O)(=O)N2CCOCC2)c1)Nc1ccc2c(c1)OCO2	-11.8%	-8.0%
COc1ccc(CCNC(=O)c2nc(SCc3ccc(F)cc3)ncc2Cl)cc1OC	-10.8%	-19.4%
N#Cc1c(NC(=O)c2ccccc2)sc2c1CCCCC2	-22.9%	.
O=C(COC(=O)c1cccc(S(=O)(=O)N2CCCCC2)c1)NC1CCCCC1	-6.5%	-9.2%
COCCn1c(-c2ccc(OC)cc2)cnc1SCC(=O)Nc1ccc(OC)cc1OC	-17.6%	-24.5%
CCN(CC)S(=O)(=O)c1ccc(N=N/C(C(C)=O)=C(/C)O)cc1	-18.3%	.
CC/C(C)=N\N=C\c1c(O)n(CC)c2cc(C3=NNC(=O)CC3)ccc12	-14.2%	.
Cc1c(C(=O)N2CCCCC2)c(S(=O)(=O)N2CCN(c3ccccc3F)CC2)c(C)n1C	3.3%	-12.5%
COc1ccc(C2=NOC(C)(c3nnc(-c4ccncc4)o3)C2)cc1 (stereo not drawn)	-8.4%	i

Full records, quoted from the list. Screens in order: Vaccinia Venus | VACV mCherry inh
Cc1c(C(=O)N2CCCCC2)c(S(=O)(=O)N2CCN(c3ccccc3F)CC2)c(C)n1C as listed: 3.3% | -12.5%
CCOc1ccc(CCN2C(=O)C(=O)N([C@@H](CC(C)C)CN3CCC[C@H]3CN3C(=O)C(=O)NC[C@@H]3CC(C)C)C[C@@H]2Cc2ccccc2)cc1 as listed: -25.8% | ?
COc1ccc(C2=NOC(C)(c3nnc(-c4ccncc4)o3)C2)cc1 (stereo not drawn) as listed: -8.4% | i
COc1ccc(CCNC(=O)c2nc(SCc3ccc(F)cc3)ncc2Cl)cc1OC as listed: -10.8% | -19.4%
CC(O)(c1ccccc1)c1nc(-c2cccc(C#N)c2)cs1 (stereo not drawn) as listed: 0.7% | -4.9%

More results follow.
SMILES	Vaccinia Venus	VACV mCherry inh
CCc1nc(NCCN2CCOCC2)c(C#N)c2c1CCCC2	-15.7%	-2.7%
Fc1ccc(Nc2nc(N/N=C/c3ccco3)nc(N3CCCCC3)n2)cc1	?	-23.0%
Brc1ccc2c(c1)OCCOCCOCCOCCOCCO2	-9.4%	-15.6%
CCOC(=O)C1CCN(c2c(-c3ccccc3)c3cc(Cl)ccc3[nH]c2=O)CC1	0.2%	-19.0%
CN(CCC(=O)Nc1ccc(Cl)cc1)Cc1ccccc1	-5.4%	-11.8%
COC(=O)[C@]12CCCCC=C1N(CCc1ccc(OC)c(OC)c1)C(=O)[C@H](CC(=O)N1CCSCC1)C2	-12.7%	-4.1%
O=C(Cn1[nH]c(=O)c2ccccc2c1=O)NCc1cccnc1	-13.1%	i
O=C(O)CNc1nc(NCc2ccc(Cl)cc2)ccc1[N+](=O)[O-]	-8.4%	i
CC1=C(C(=O)OC2CCCCCCC2)C(c2cccc(O)c2)NC(=O)N1 (stereo not drawn)	-19.1%	-27.5%
CC1=CN2C(=NC(=O)CC2(C)C(=O)N(CC(=O)NC2CCCC2)c2cc(C)cc(C)c2)C=C1 (stereo not drawn)	-1.2%	i
O=C1OCCC1=COCCCCCOC=C1CCOC1=O	-4.1%	i
